Bioassay records as filed in PubChem.
FGF22 binding = FGF22 (human) thermal shift binding | Q9HCT0 | recombinant FGF22 thermal shift, SYPRO orange fluorescence; percent of sucrose octasulfate shift, DMSO zero | calls only at 9.99 µM | 1.5% of 340,000 active;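 active = melting point raised past a set limit in the mean and every replicate; three in four hits are not shown here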
Target sequence (Q9HCT0 whole entry, looked up): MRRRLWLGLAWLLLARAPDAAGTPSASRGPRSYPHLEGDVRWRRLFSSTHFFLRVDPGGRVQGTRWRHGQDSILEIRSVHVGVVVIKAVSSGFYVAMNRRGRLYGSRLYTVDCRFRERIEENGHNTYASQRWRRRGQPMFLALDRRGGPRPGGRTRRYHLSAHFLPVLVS
AF4-AF9 inh = inhibitors of human MLL-AF4/AF9 interaction; P42568; AlphaScreen, biotin-AF4 peptide binding to FLAG-AF9; inhibition, % at 10 µM; 0.47% of 350,000 active;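 active = every replicate reaching a set inhibition limit, whatever the replicate mean, cut at about 25% in these data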;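 also: 0% = plate neutral control median and 100% = total signal loss; the record names both 10 and 1 µM as test concentration; the first replicate is given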
Target sequence (P42568 whole entry, looked up): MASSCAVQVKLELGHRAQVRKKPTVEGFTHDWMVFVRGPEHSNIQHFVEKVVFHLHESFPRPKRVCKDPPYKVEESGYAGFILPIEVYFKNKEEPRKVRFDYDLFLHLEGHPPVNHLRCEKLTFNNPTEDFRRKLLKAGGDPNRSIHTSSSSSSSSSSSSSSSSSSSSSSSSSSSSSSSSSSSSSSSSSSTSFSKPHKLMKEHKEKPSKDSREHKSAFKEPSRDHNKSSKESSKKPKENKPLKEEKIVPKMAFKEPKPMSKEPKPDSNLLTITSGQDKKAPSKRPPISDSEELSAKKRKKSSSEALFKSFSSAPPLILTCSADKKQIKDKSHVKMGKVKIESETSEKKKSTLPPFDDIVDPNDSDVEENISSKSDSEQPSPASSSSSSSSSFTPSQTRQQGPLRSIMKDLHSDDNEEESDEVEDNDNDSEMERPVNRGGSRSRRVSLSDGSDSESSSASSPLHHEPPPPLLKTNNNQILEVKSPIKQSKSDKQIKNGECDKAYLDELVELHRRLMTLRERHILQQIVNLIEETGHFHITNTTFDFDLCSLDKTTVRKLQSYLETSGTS
Starred values were filed as active, the others as inactive; i = inactive.

SMILES	FGF22 binding	AF4-AF9 inh
[N-]=[N+]=Nc1ccccc1C[C@@]1(C(=O)NCc2ccccc2)N=C(c2ccc(OCCCO)cc2)O[C@@H]1c1ccccc1	i	-1.0
Cc1cc(=O)c2ccc(NC(=O)c3ccccc3)cc2[nH]1	i	-9.3
COc1ccc(NC(=O)C2Cc3c(-c4cccc(F)c4)ccnc3O2)cc1OC (centres undefined)	i	1.8
CCCN1C(=O)CC(c2ccc(OC)c(OC)c2)C1=O (centres undefined)	i	0.3
CCn1nccc1NC(=O)c1ccc2sc([C@@H]3O[C@H](CO)[C@H](O)[C@H](O)[C@H]3O)nc2c1	i	-1.7
C=C[C@@H](COC(C)=O)N(Cc1ccccc1[N+](=O)[O-])S(=O)(=O)c1ccc(Br)cc1	i	3.4
CCN(CC)S(=O)(=O)c1ccc(C(=O)Nc2cc(S(=O)(=O)N3CCOCC3)ccc2N2CCN(C)CC2)cc1	i	4.8
COCCOC(=O)N1C(=O)[C@@]2(c3cc(C#CCCO)ccc31)[C@H](C(=O)N1CCN(c3ncccn3)CC1)[C@H]1C(=O)O[C@H](c3ccccc3)[C@H](c3ccccc3)N1[C@@H]2c1ccccc1OCCO	i	1.5
COc1ccccc1C#Cc1ccc2c(c1)O[C@@H](CN(C)Cc1cccnc1)[C@H](C)CN([C@H](C)CO)S2(=O)=O	i	4.6
OC[C@H]1[C@H](c2ccc(C#CC3CC3)cc2)[C@@H]2CN(CCC(F)(F)F)CCCCN12	i	13
CC(NC(=O)C(NC(=O)OCc1ccccc1)C(C)O)C(=O)OCc1ccccc1 (centres undefined)	i	-1.7
CCOC(=O)C1CCN(C(=O)c2ccc3c(=O)n4nc(Nc5ccccc5)sc4nc3c2)CC1	i	-0.7
Cc1ccccc1Nc1nc(N)[nH]c(=O)c1N=O	i	5.9
O=S(=O)(c1ccc2ccccc2c1)N1CCN(Cc2ccc(OCCO)cc2)CC1	i	0.4
O=C(NC1CC1)c1ccccc1	i	1.0
COc1ccc(C#Cc2ccc3c(c2)[C@]2(C(=O)N3)[C@H](c3ccc(OCCO)cc3)N3[C@H](c4ccccc4)[C@H](c4ccccc4)OC(=O)[C@H]3[C@@H]2C(=O)N2CCN(c3ncccn3)CC2)cc1	i	-8.2
COCCOC(=O)N1C(=O)[C@@]2(c3cc(C#CCCO)ccc31)[C@H](c1ccc(O)cc1)N1[C@H](c3ccccc3)[C@H](c3ccccc3)OC(=O)[C@H]1[C@@H]2C(N)=O	i	2.0
CN(N=Cc1ccc(N(C)C)cc1)C(=O)c1ccccc1N	i	8.9
CCCC(=O)Nc1ccc2c(c1)C(=O)N(C)[C@H]1CC[C@H](CC(=O)NCCc3ccncc3)O[C@@H]1CO2	i	2.2
Cc1ccc(C(O)c2ncc(-c3ccccc3C)[nH]2)cc1 (centres undefined)	i	2.4
OC[C@@H]1[C@H](c2ccc(C#CC3CC3)cc2)[C@H]2CN(CCC(F)(F)F)CCCCN12	i	17
NC(c1csc(Nc2cc(Oc3ccccc3)ncn2)n1)c1ccccc1Cl (centres undefined)	i	0.8
CC(C)c1ccc(CC(=O)N2CCC2(C)C(=O)Nc2ccccc2)cc1 (centres undefined)	i	0.8
CC(C)C[C@H]1CNC(=S)N1CC1CCN(CCC2CCCC2)CC1	i	4.5
CC(C)Cc1ccc(-c2ccc3nccn3c2)cc1	i	1.9
O=c1[nH]cnc2c1ccn2C1OC(CO)C(O)C1O (centres undefined)	i	-1.9
CCCC[C@]12CCCC(=O)N1CCc1c2[nH]c2ccccc12	i	3.0
CC(C)=CCn1c2ccc(NC(=O)Nc3ccc(N(C)C)cc3)cc2c(=O)n1C	i	9.1
C[C@@H]1CN([C@H](C)CO)C(=O)c2cccc(NC(=O)Nc3ccc(C(F)(F)F)cc3)c2O[C@@H]1CN(C)C(=O)NC1CCCCC1	i	-1.7
Cc1[nH]ccc2cc3nc4ccccc4c3cc12	i	-2.6

Of the compounds above, these have a CF3 group.
SMILES	FGF22 binding	AF4-AF9 inh
OC[C@H]1[C@H](c2ccc(C#CC3CC3)cc2)[C@@H]2CN(CCC(F)(F)F)CCCCN12	i	13
OC[C@@H]1[C@H](c2ccc(C#CC3CC3)cc2)[C@H]2CN(CCC(F)(F)F)CCCCN12	i	17
C[C@@H]1CN([C@H](C)CO)C(=O)c2cccc(NC(=O)Nc3ccc(C(F)(F)F)cc3)c2O[C@@H]1CN(C)C(=O)NC1CCCCC1	i	-1.7

The list goes on.
SMILES	FGF22 binding	AF4-AF9 inh
CCOC(=O)c1ccc(NC(=O)O[C@H]2[C@H](OC(=O)Nc3ccccc3)[C@@H](OC(=O)Nc3ccccc3)[C@@H](OC)O[C@@H]2CO)cc1	i	14
Cc1ccccc1S(=O)(=O)N1CCCCN2[C@H](CO)[C@@H](c3ccc(-c4ccccc4)cc3)[C@@H]2C1	i	-4.2
O=C(C[C@H]1CC[C@@H]2[C@H](COC[C@H](O)CN2Cc2ccc(Oc3ccccc3)cc2)O1)N1CCc2ccccc2C1	i	3.7
COc1ccccc1C(=O)C1CCCN(C(=O)c2ccc(Cl)cc2)C1 (centres undefined)	i	-4.4
OC[C@H]1CC[C@@H]2O[C@H](CCc3ccc(-c4ccc(F)cc4)cc3)[C@@H](n3cc(C4CC4)nn3)C[C@@H]2O1	i	1.6
Nc1ccn(C2C=CC(CO)O2)c(=O)n1 (centres undefined)	i	-6.6
O=S(=O)(NC1CCN(Cc2ccc(OCCO)cc2)CC1)c1cc(C(F)(F)F)ccc1Cl	i	12
CC(C)(O)c1cn([C@H]2C[C@@H]3O[C@@H](CO)CC[C@@H]3O[C@@H]2CCc2ccc(-c3ccncc3)cc2)nn1	i	-1.5
Cc1ccc([C@H]2C[C@H](O)[C@@H](n3cc(COC(=O)c4ccccc4)nn3)CN2CC2CCCCC2)cc1	i	-1.8
O=C(Cn1cc(CN2C(=O)COC[C@H]2c2ccccc2)nn1)Nc1nccs1	i	-5.4
CCc1nc2c(OCC(=O)C(C)(C)C)cccn2c1N(C)C(=O)CC(C)C	i	1.1
O=[N+]([O-])c1ccc(CS(=O)c2ccccc2)cc1 (centres undefined)	i	-0.8
COc1ccc(C#Cc2ccc3c(c2)[C@]2(C(=O)N3)[C@H](c3ccc(OCCO)cc3)N3[C@H](c4ccccc4)[C@H](c4ccccc4)OC(=O)[C@H]3[C@@H]2C(=O)N2CCc3cc(OC)c(OC)cc3C2)cc1	i	-2.5
NC(=O)[C@@H]1[C@H]2C(=O)O[C@H](c3ccccc3)[C@H](c3ccccc3)N2[C@H](c2ccc(O)cc2)[C@@]12C(=O)Nc1ccc(C#CC3=CCCCC3)cc12	i	1.8
CC1NC(=O)c2cc3ccccc3cc2-n2c1nc1cc(Cl)ccc1c2=O (centres undefined)	i	0.7
CC(C)C1CC2=C(C(=O)OC(C)(C)O2)C(c2ccc(Cl)cc2)O1 (centres undefined)	i	-0.1
O=C(O)C1=C[C@H](c2ccc3c(c2)Cc2ccccc2-3)C[C@H](OCCCCO)O1	i	2.0
CC(C)Cc1ccc(CN2CC[C@@H](NC(=O)c3ccccc3)C2)cc1	i	1.0
C=CCN1C(=O)[C@]2(O[C@H](CCO)[C@@H]([Si](C)(C)c3ccc(OC)cc3)[C@@H]2C)c2ccccc21	i	-3.3
S=C1SC2(CCCCCC2)NC2=C1CCCCC2	i	9.1
CSCC[C@H](NC(=O)Cc1c(C)c2cc3c(C)c(C)oc3cc2oc1=O)C(=O)N[C@@H](C(=O)O)c1ccccc1	i	-0.4
CC(C)c1ccc(NC(=O)C[C@H]2CC[C@H]3[C@@H](COc4ccc(NC(=O)Nc5ccc(F)c(F)c5)cc4C(=O)N3C)O2)cc1	i	-7.2
COc1ccc(Cl)cc1C=CC=Nc1ccc(S(N)(=O)=O)cc1	i	-2.3
CCN(CC(=O)Nc1ccccc1C(F)(F)F)C(=O)c1ccc2c(c1)NC(=O)C(C)S2 (centres undefined)	i	2.0
CO[C@H]1CN(C)C(=O)c2cc(NC(=O)c3ccc(-c4ccccc4)cc3)ccc2OC[C@@H](C)NC[C@@H]1C	i	7.3
COc1ccc(C#Cc2ccc3c(c2)[C@]2(C(=O)N3)[C@H](c3ccc(OCCO)cc3)N3[C@H](c4ccccc4)[C@H](c4ccccc4)OC(=O)[C@H]3[C@@H]2C(=O)N2CCCCCCC2)cc1	i	-8.8
Clc1ccc2nc(-c3cccc(Br)c3)c(Cc3ccccc3)n2c1	i	-2.4
CC1(C(=O)NCC2CCOCC2)Cc2c(-c3cccc(C(N)=O)c3)ccnc2O1 (centres undefined)	i	-1.1
COC1=C(OC)C(=O)C(CCCCCCCCCCO)=C(C)C1=O	i	16
Cn1c(CC(O)c2nc3ccccc3n2C)nc2ccccc21 (centres undefined)	i	-2.3

Single records (already shown):
`CC(C)c1ccc(NC(=O)C[C@H]2CC[C@H]3[C@@H](COc4ccc(NC(=O)Nc5ccc(F)c(F)c5)cc4C(=O)N3C)O2)cc1` is listed with FGF22 binding: i; AF4-AF9 inh: -7.2
`Cn1c(CC(O)c2nc3ccccc3n2C)nc2ccccc21` (centres undefined) is listed with FGF22 binding: i; AF4-AF9 inh: -2.3

Other structures
SMILES	FGF22 binding	AF4-AF9 inh
CCCc1ccc(S(=O)(=O)N2CCN(C(=O)CN3C(=O)NC(C)(C4CC4)C3=O)CC2)cc1 (centres undefined)	i	3.3
CC(C)(C)NC(=O)C1c2ccccc2OCC(=O)N1CCc1ccccc1 (centres undefined)	i	-4.9
CCOC(=O)C1CCCN(C(=O)c2ccc(F)c(Cl)c2)CC1 (centres undefined)	i	-4.0
COc1ccc(CNC(=O)COc2cc3c(c4oc(=O)cc(C)c24)CCC(C)(C)O3)c(OC)c1	i	0.4
CCOC(=O)[C@]12CCCC=C1N(Cc1cccc3ccccc13)C(=O)[C@H](CC(=O)NCc1cccc(C(F)(F)F)c1)C2	i	-0.7
CC(C)C[C@@H]1NC(=O)[C@@H]2C[C@H](C(=O)NCCCCCCN(C)C)[C@H](c3ccc(O)cc3)N2C1=O	i	-0.8
O=C1O[C@@H](c2ccccc2)[C@@H](c2ccccc2)N2[C@@H](c3ccc(OCCO)cc3)[C@]3(C(=O)Nc4ccc(C#CC5(O)CCCCCC5)cc43)[C@@H](C(=O)N3CCCCCCC3)[C@H]12	i	-2.0
O=NN(CCCl)C(=O)NCC1=C[N+](=O)CC=C1	i	1.9
C=CCN1Cc2ccccc2[C@@H]2OC(c3ccc(OCCCO)cc3)=N[C@]2(Cc2ccccc2)C1=O	i	5.4
O=C1CSC2=NC3(CO)Oc4ccccc4[C@H]([C@H]3CO)N12	i	-0.5
Cc1ccc(-c2cnc(C(O)c3ccc(Cl)c(Cl)c3)[nH]2)cc1 (centres undefined)	i	-1.9
CCN(CC)C(=O)Cn1cc(C(=O)C(=O)Nc2ccc3c(c2)OCO3)c2ccccc21	i	5.8
CCc1ccc(/C=C2\SC(=S)N(CCCC(=O)N3CCN(C)CC3)C2=O)cc1	i	33*
O=C(OC(C(=O)NCc1ccccc1)c1cccs1)c1ccccc1 (centres undefined)	i	-2.0
CO[C@H]1CN(C)C(=O)c2ccc(NC(C)=O)cc2OC[C@@H](C)N(C(=O)CN2CCOCC2)C[C@@H]1C	i	-0.6
CCCN(CC(=O)Nc1ccccc1C)C(=O)/C=C/c1ccc(OC)c(OC)c1	i	-3.6
C=CC[C@]12N=C(c3ccc(OCCCO)cc3)O[C@H]1c1ccccc1CN(C(=O)c1ccccc1)C2=O	i	5.5
C#CCN1[C@H](/C=C/C2CC2)[C@H](Cc2ccccc2)OC(=O)[C@@H]1[C@@H]1N[C@@H](C(=O)OC)C(C)(C)S1	i	-1.8
CC(C)N1C(=O)[C@@]2(Cc3ccccc31)c1ccccc1C(=O)N(Cc1ccccc1)[C@H]2c1ccc(CO)cc1	i	-2.7
COc1ccc(C)cc1NC(=O)NC1CC(=O)N(c2ccc3c(c2)OCCO3)C1 (centres undefined)	i	-4.7
COC(=O)C(CC#Cc1ccc2c(c1)[C@]1(C(=O)N2)[C@H](c2ccccc2OCCO)N2[C@H](c3ccccc3)[C@H](c3ccccc3)OC(=O)[C@H]2[C@@H]1C(=O)N1CCN(c2ncccn2)CC1)C(=O)OC	i	-0.7
CC1(Cc2ccc3c(c2)OCO3)C(=O)Nc2ccc(-c3cccc(C(F)(F)F)c3)cc21 (centres undefined)	i	-1.8
CN(C)C(=O)c1ccc(-c2ccc([C@@H]3[C@H]4CN(C(=O)C5CCC5)CCCCN4[C@H]3CO)cc2)cc1	i	-5.1
C[C@H](CO)N1C[C@H](C)[C@H](CN(C)CC2CCOCC2)Oc2ncc(C#Cc3ccncc3)cc2C1=O	i	-14
Cc1ccc(S(=O)(=O)NC(=O)C2(C)CCN2C(=O)CC2CCCCC2)nc1 (centres undefined)	i	-2.5
C[C@H](O)[C@@H]1C(=O)N2CCc3ccc(-c4ccccc4)cc3[C@@H]2C[C@@H]1N(C)C(=S)Nc1ccc(F)cc1	i	0.1
CCN1C(=O)[C@H]2[C@@H](c3ccc(C(F)(F)F)cc3)N[C@]3(CCCN(Cc4ccc(Br)cc4)C3=O)[C@H]2C1=O	i	-0.1
O=C(OC(C(=O)NCc1ccccc1)c1ccco1)c1ccccc1 (centres undefined)	i	-2.7
CCCCCCN1C[C@@H](n2cc(-c3ccc(F)cc3)nn2)[C@H](O)C[C@@H]1c1ccc(Cl)cc1	i	0.6

Ordered by molecular weight (ascending): five of the compounds above.
SMILES	FGF22 binding	AF4-AF9 inh
COc1ccc(NC(=O)C2Cc3c(-c4cccc(F)c4)ccnc3O2)cc1OC (centres undefined)	i	1.8
OC[C@H]1[C@H](c2ccc(C#CC3CC3)cc2)[C@@H]2CN(CCC(F)(F)F)CCCCN12	i	13
CCCCCCN1C[C@@H](n2cc(-c3ccc(F)cc3)nn2)[C@H](O)C[C@@H]1c1ccc(Cl)cc1	i	0.6
Cc1ccc([C@H]2C[C@H](O)[C@@H](n3cc(COC(=O)c4ccccc4)nn3)CN2CC2CCCCC2)cc1	i	-1.8
CCCC(=O)Nc1ccc2c(c1)C(=O)N(C)[C@H]1CC[C@H](CC(=O)NCCc3ccncc3)O[C@@H]1CO2	i	2.2

Not all compounds are listed, so the mix of outcomes need not match the whole.
